Assay outcomes deposited in PubChem by several laboratories.
Rce1 inhib = blocks yeast Ras-converting enzyme; AID 2563; yeast membranes, quenched prenylated peptide cleavage fluorescence; Q03530; actives 0.27% (n = 290,000); calls only;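 active = fall in fluorescence gain of 50% or more versus controls, with final raw signal at or below 3038400; inconclusive = same 50% fall but final raw signal above 3038400; inactive = fall in fluorescence gain under 50%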;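 also: plate controls were neutral control wells for no effect and wells lacking membranes for full effect; tested at 10 µM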
Target sequence (Q03530 whole entry, looked up): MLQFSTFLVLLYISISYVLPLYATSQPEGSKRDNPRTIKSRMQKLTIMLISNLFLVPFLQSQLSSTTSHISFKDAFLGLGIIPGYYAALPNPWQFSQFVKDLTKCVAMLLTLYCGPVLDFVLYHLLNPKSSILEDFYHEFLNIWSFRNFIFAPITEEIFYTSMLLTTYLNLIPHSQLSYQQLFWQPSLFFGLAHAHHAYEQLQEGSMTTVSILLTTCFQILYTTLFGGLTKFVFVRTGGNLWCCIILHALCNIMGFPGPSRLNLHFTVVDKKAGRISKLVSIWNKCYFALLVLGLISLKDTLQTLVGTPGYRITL
CSC inhib = blocks cancer stem cells | cancer stem cell-like cells viability, luminescence | inhibition, % at 7.5 µM | actives 1.1% (n = 300,000) | AID 2717;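 active = mean at 75% or more and at least half the replicates too; inconclusive = mean and replicates disagree; tested in HMLE shEcad cells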;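 also: 0% = median of negative and 100% = median of positive control wells; the first replicate is given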
HIV Env fusion = blocks HIV Env-driven cell-cell fusion | HeLa-JRFL Env/CEM21 cell fusion, luciferase | inhibition, % at 12.3 µM | actives 1.1% (n = 360,000) | AID 651610;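 active = mean replicate inhibition score of at least 50 and every replicate individually at or above 50; inconclusive = only one of the two criteria met; inactive = mean below 50 and not all replicates reaching 50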;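 also: 0% = plate neutral controls and 100% = maraviroc near 300 nM; one replicate is shown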
PABP FP inh = blocks human PABP binding to poly(A) RNA. P11940. fluorescence polarization. actives 1% (n = 290,000). inhibition, % at 35 µM;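 active = 50% or more with normal probe brightness, or confirmed in later tests; inconclusive = above 50% with abnormal brightness, or retests that disagree; inactive = below 50% or failed in later tests; about a fifth of its hits are not listed in these tables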;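 also: calls also rest on retests at 20 µM and on dose response follow-up; controls were probe without protein and protein plus probe with vehicle; some compounds called inactive have numbers as strong as hits; many hits fall short of the cut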
MT1-MMP act inh = MT1-MMP (human) activation inhibition. P50281. HT1080 RFP-PRO-GFP cells, GFP/RFP ratio fluorescence, overnight; percent of plate control window, DMSO zero. GFP/RFP ratio change, % at 20 µM. actives 0.061% (n = 360,000). AID 651647;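 active = GFP/RFP ratio change of at least 30% with cell ATP level not reduced by more than half and red fluorescence within 50% of control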; also: strong numbers were not always called active
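Read-out: GFP/RFP fluorescence ratio; Test system: RFP-PRO-GFP reporter HT1080 cells; Compound dosing: single-point 20 µM compound, 1% DMSO; Times: overnight compound exposure at 37 °C.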
UUG fidelity = modulators of start codon recognition fidelity in yeast; S. cerevisiae UUG-firefly luciferase reporter, luminescence/redox ratio; activity score, % at 18.7 µM; actives 0.13% (n = 350,000); AID 602363;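 active = replicate mean at a twofold rise or more, about +100% in these data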;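 also: firefly luciferase made from a UUG start codon reports start codon fidelity; reporter light over untreated wells divided by growth signal over untreated wells; some hits fall short of that in this replicate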
eIF4H FP inh = inhibitors of RNA binding by human eIF4H | eIF4H fluorescence polarization binding assay | inhibition, % at 35 µM | actives 0.94% (n = 290,000);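 active = 50% or more with normal probe brightness, or confirmed in later tests; inconclusive = above 50% with abnormal brightness, or retests that disagree; inactive = below 50% or failed in later tests; about a fifth of its hits are not listed in these tables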;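 also: calls also rest on retests at 20 µM and on dose response follow-up; 0% = protein and probe with vehicle and 100% = probe without protein; strong numbers were not always called active; many hits fall short of the cut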
eIF4H FP inh retest = further read-out of eIF4H FP inh, marked with its call; inhibition, %; compound at 20 µM; confirmation average;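 mean of two retest wells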
PABP FP inh retest = recorded beside PABP FP inh, whose call it bears; inhibition, %; compound at 20 µM; confirmation repeats;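 mean of two retest wells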
MT1-MMP act inh RFP = recorded beside MT1-MMP act inh, whose call it bears; RFP signal change, %; measured here: RFP expression control read;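 0 = vehicle wells; hits needed this value within 50% of zero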
Numbers without * were called inactive; i = inactive; u = inconclusive; x = no result given. Only part of the results is shown. The share of hits here may be higher or lower than overall.

SMILES	Rce1 inhib	CSC inhib	HIV Env fusion	PABP FP inh	MT1-MMP act inh	MT1-MMP act inh RFP	UUG fidelity	eIF4H FP inh	others
COC(=O)c1ccccc1NC(=O)c1ccc(-c2cccc(Cl)c2)o1	i	15	x	-7	1	3	x	-8
CCOC(=O)C1CCN(C(C(=O)NC2CCCC2)c2ccc(C)cc2)CC1 (configuration not stated)	i	4	-27	-3	1	5	-7	69	eIF4H FP inh retest=1;PABP FP inh retest=9
O=C(Cc1ccccc1)Nc1ccc(NC(=O)c2ccccc2)nc1	i	12	-3	6	2	0	2	9
O=C(Nc1ccc(OC(F)(F)F)cc1)N1CCc2nc(NCc3cccc(Oc4ccccc4)c3)ncc2C1	x	x	38	x	7	-26	-5	x
Cc1cc(C)c(NC(=O)CNC(=O)COC(=O)Cc2cccs2)c(C)c1	i	-6	-12	x	-2	1	-7	x
COCCNC(=O)c1cc(-c2ccc3c(c2)OCO3)on1	i	-4	-136	11	11	7	-22	-6
CCOc1ccc(S(=O)(=O)N2CCCCC2)cc1NC(=O)CN1C(=O)NC(C)(c2ccccc2)C1=O (configuration not stated)	i	-15	13	x	-4	-3	x	x
Cc1ccc(C(=O)NC2CCSC2=O)cc1 (configuration not stated)	i	-6	x	-2	10	2	-2	-2
CCOC(=O)c1cnn(-c2nc(-c3ccc(C)cc3)cs2)c1C(F)(F)F	i	-8	-85	0	3	2	x	-14
O=Cc1c(N2CCSCC2)nc2ccccn2c1=O	i	10	-11	6	2	3	-5	4
O=C1CC(NCc2ccco2)C(=O)N1CCc1ccccc1 (configuration not stated)	i	-6	-22	7	3	2	-12	4
Cn1c(=O)c(=O)n(C)c2cc(S(=O)(=O)N3CCN(c4cccc(C(F)(F)F)c4)CC3)ccc21	i	x	x	11	0	-5	-12	-2
CC1(c2nnc(-c3cccc(Cl)c3)o2)CC(c2cccnc2)=NO1 (configuration not stated)	i	-2	6	x	1	3	3	x
O=C(NCCO)c1cc2cc(Cl)cc(Cl)c2oc1=O	x	-8	-109	-4	-6	8	x	10
CN(C)S(=O)(=O)c1ccc(N2CCCC2=O)c([N+](=O)[O-])c1	i	-8	-6	2	-1	0	x	-1
Cc1cccc(C)c1NC(=S)N(CCN(C)C)C(C)c1ccccn1 (configuration not stated)	i	-3	-1	-21	1	0	x	-5
CCOc1cc(C=NNC(=O)c2cccc(S(=O)(=O)N3CCCC3)c2)ccc1O	x	-14	x	x	6	-6	-2	x
Cc1ccc(S(=O)(=O)N2C[C@H]3C(=O)C[C@@H](c4ccccc4)N(S(=O)(=O)c4ccc(C)cc4)[C@H]3C[C@H]2c2cccc3ccccc23)cc1	x	x	-1	x	-1	1	-21	x
COc1cccc(-c2ncc3ccccc3c2COC(=O)N(C)C)c1	x	-7	61*	x	3	-5	-7	x
Cc1nc(C)c(C(=O)OCC(=O)NCCc2ccc(F)cc2)s1	x	x	-12	x	2	1	-11	x
CC(=O)C1=C(C)OC(N)=C(C#N)C1c1cccnc1 (configuration not stated)	i	0	5	-14	1	3	x	20
COc1ccc(CCNC(=O)CCNC(=O)N2CC(=O)Nc3ccccc32)cc1OC	i	0	-8	-4	1	4	-9	1
CC1CCc2nc(NC(=O)CN3CCN(Cc4ccc5c(c4)OCO5)CC3)sc2C1 (configuration not stated)	i	10	x	0	0	-10	-9	-1
COc1cccc(-n2c(N)c(C(=O)Nc3c(C)n(C)n(-c4ccccc4)c3=O)c3nc4ccccc4nc32)c1	i	16	-14	16	-9	-5	2	17
COc1cc(C2CC(=O)N(CC(=O)NCc3ccco3)c3ccccc3S2)cc(OC)c1OC (configuration not stated)	i	-15	x	1	-3	-3	12	5

An excerpt from above in order of count of non-hydrogen atoms, rising:
SMILES	Rce1 inhib	CSC inhib	HIV Env fusion	PABP FP inh	MT1-MMP act inh	MT1-MMP act inh RFP	UUG fidelity	eIF4H FP inh	others
O=C1CC(NCc2ccco2)C(=O)N1CCc1ccccc1 (configuration not stated)	i	-6	-22	7	3	2	-12	4
CCOc1cc(C=NNC(=O)c2cccc(S(=O)(=O)N3CCCC3)c2)ccc1O	x	-14	x	x	6	-6	-2	x
O=C(Nc1ccc(OC(F)(F)F)cc1)N1CCc2nc(NCc3cccc(Oc4ccccc4)c3)ncc2C1	x	x	38	x	7	-26	-5	x

Back to the main list, starting four compounds before the break.
SMILES	Rce1 inhib	CSC inhib	HIV Env fusion	PABP FP inh	MT1-MMP act inh	MT1-MMP act inh RFP	UUG fidelity	eIF4H FP inh	others
COc1ccc(CCNC(=O)CCNC(=O)N2CC(=O)Nc3ccccc32)cc1OC	i	0	-8	-4	1	4	-9	1
CC1CCc2nc(NC(=O)CN3CCN(Cc4ccc5c(c4)OCO5)CC3)sc2C1 (configuration not stated)	i	10	x	0	0	-10	-9	-1
COc1cccc(-n2c(N)c(C(=O)Nc3c(C)n(C)n(-c4ccccc4)c3=O)c3nc4ccccc4nc32)c1	i	16	-14	16	-9	-5	2	17
COc1cc(C2CC(=O)N(CC(=O)NCc3ccco3)c3ccccc3S2)cc(OC)c1OC (configuration not stated)	i	-15	x	1	-3	-3	12	5
O=C(Nc1nccs1)c1cc2c(s1)CCCCC2	i	2	x	1	0	-12	-89	2
CCCCN(CC)C(=O)c1ccc(Cl)c(Cl)c1	i	-3	-16	11	-3	3	-1	0
N[C@@H](Cc1ccc(O)c(O)c1)C(=O)O	x	x	-145	x	1	4	-19	x
Cc1nc(C)c(C(=O)N2CCCC(CCC(=O)NCc3ccc(F)c(F)c3)C2)s1 (configuration not stated)	i	0	-15	0	-2	-2	x	-3
Clc1ccc(OCCCCN2CCCCC2)cc1	i	-10	x	-3	1	3	-20	15
CN(C)CCCN(C(=O)COc1ccc(Cl)cc1)c1nc2cc3c(cc2s1)OCCO3	i	-7	x	x	2	-1	4	x
O=C(Cc1cccc(NC(=O)C2CCCN(C(=O)CCc3ccccc3)C2)c1)Nc1cccc(C(=O)N2CCCCC2)c1 (configuration not stated)	x	x	7	x	1	-11	11	x
Cc1cc(C)nc(N/N=C/c2cn[nH]c2-c2ccccc2)n1	i	-9	15	-2	1	3	-7	1
Cc1ccc(N=c2c([N+](=O)[O-])nn(-c3ccc(Cl)cc3)n2O)cc1C	i	-8	14	15	1	0	-6	-6
Cc1ccc(C(=O)Nc2nc(COc3ccccc3)cs2)s1	i	26	x	7	-26	-24	x	-14
COc1ccc(C(=O)N/N=C(/C)c2cccc(NC(=O)c3ccccc3F)c2)cc1	i	x	-18	1	4	2	-12	-8
COc1ccc(C2=NN(C(=O)CSc3nc(=O)n4cccc(C)c4n3)C(c3ccc(C)cc3)C2)cc1 (configuration not stated)	i	10	13	x	-7	-4	-9	x
Cc1nnc(N(Cc2ccco2)C(=O)c2ccc(C#N)cc2)s1	i	-1	x	8	2	4	-9	7
Cc1ccc(CSc2nnc(-c3cnccn3)n2C)cc1	i	-9	-36	-6	3	-1	x	9
COc1cc(NC(=O)c2cc3ccccc3o2)ccc1NC(=O)c1ccco1	x	-9	18	16	0	1	-2	5
[O-]/C(=C(\C(=S)Nc1cccc2ccccc12)[n+]1ccccc1)c1ccc(OC(F)F)cc1	x	x	-4	4	2	1	x	8
CCCSc1nnc(NC(=O)Cc2ccc(OC)c(OC)c2)s1	i	-7	-18	3	-3	-5	x	2
CN1CCC(N(C)C(=O)COc2ccccc2Cl)CC1	x	5	x	x	2	4	-16	x
COc1ccc(N(C(=O)c2snc(C(N)=O)c2N)C(C(=O)NC2CCCC2)c2cc(OC)ccc2OC)cc1 (configuration not stated)	i	0	5	10	-3	-4	-9	-19
Cc1ccc(S(=O)(=O)NN2C(=O)c3ccccc3NC2c2ccccc2F)cc1 (configuration not stated)	i	x	14	6	-5	-1	-4	-1
CC(C)(C)NC(=O)c1c(F)c(F)c(F)c(F)c1F	i	-7	-3	10	0	-1	x	-3
CCN(CC)c1ccc(C(=O)NNC(=O)CCl)cc1	i	5	18	7	-3	2	-18	-3
COC(=O)CSc1nc2cc(OC)ccc2cc1C#N	i	-7	i	-4	-7	0	-9	2
COC(=O)c1ccc(-n2c(CCC(=O)O)ccc2-c2ccccc2)cc1	i	-1	x	0	-4	0	-7	-8
O=C(O)/C=C/C(=O)Nc1ccc(Oc2ccccc2)cc1	i	-14	-38	-3	0	3	-29	4

(list continues)
SMILES	Rce1 inhib	CSC inhib	HIV Env fusion	PABP FP inh	MT1-MMP act inh	MT1-MMP act inh RFP	UUG fidelity	eIF4H FP inh	others
c1c2c(cc3sc(N4CCCCC4)nc13)OCCO2	i	3	-14	9	4	-1	-74	4
CCN1C(=NCCCCO)N[C@@H](c2cccc(F)c2)C(C(=O)OC)=C1C	i	6	3	43	-1	0	-11	18
N#Cc1ccc(-c2csc(NNC(=O)c3ccc(Br)cc3)n2)cc1	i	9	x	0	3	-4	x	-5
Cc1cc(C(=O)COc2ccccc2Cl)c(C)n1-c1ccc2c(c1)OCO2	i	36	x	-4	2	-7	x	-1
O=C(Cn1cc([N+](=O)[O-])cn1)NCc1ccco1	i	-1	9	-16	1	4	x	0
COc1ccccc1CC(=O)c1ccccc1OC	x	x	5	x	0	5	0	x
O=[N+]([O-])c1ccccc1-c1ccc(C(=S)N2CCN(c3ccccc3)CC2)o1	i	u	8	11	-1	1	11	5
CC1CC(C)CN(S(=O)(=O)N2CCCC(C(=O)NC(C)c3ccccc3)C2)C1 (configuration not stated)	i	-3	8	5	0	-4	-3	-16
Cc1ccc(NC2(C#N)C(=O)Nc3ccccc32)cc1C (configuration not stated)	i	-6	-8	-3	0	4	-9	-3
COc1ccc2c(CC(=O)O)cc(=O)oc2c1	i	-12	0	0	0	0	-11	4
O=C(NNC(=O)C12CC3CC(CC(O)(C3)C1)C2)c1ccccc1O	i	2	11	1	-1	3	-7	-4
CCN(Cc1ccccc1)C(c1cccc(C#N)c1)c1nnnn1C(C)(C)C (configuration not stated)	i	22	x	1	-9	-14	9	6
COC(=O)C1=C(C(=O)OC)[C@@H]2N(C)c3ccccc3[C@@]23C[C@@H](C(=O)OC)N(C(=O)c2cc(C)oc2C)C3=N1	i	3	x	7	-7	2	2	-2
O=C(c1ccco1)N1CCCC(N2CCN(c3ccccc3F)CC2)C1 (configuration not stated)	i	2	-14	-8	-1	0	11	-8
COc1cccc(N2CCN(C(=O)Nc3ccccc3Cl)CC2)c1	i	-4	4	-2	0	4	-25	3
CCOC(=O)N1CCN(C(=O)c2ccc(N3C(=O)CCC3=O)cc2)CC1	i	-12	-65	-8	-3	2	-14	-1
CC1CN(c2ccccc2)NC1=O (configuration not stated)	x	2	-2	-9	1	4	x	-8
